# Beta apoptosis = beta cell apoptosis inhibition; INS-1E cytokine-induced death, ATP luminescence, 48 h; percent of positive-control rescue, neutral wells zero; protection from apoptosis, % (test concentration not listed); actives 0.8% (n = 300,000);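 active = all replicates at 75% or more, or half of them and the mean; inconclusive = half reach 75% but not the mean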;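 also: 0% = cytokine-treated negative control wells and 100% = positive control rescue; higher means more ATP so stronger rescue from cytokine killing; wells of about 40 µL received 100 nL stock; the first replicate is given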
# Beta2AR agonist = human beta-2 adrenergic receptor agonism by FAP; P07550; Am2.2-beta2AR cells, FAP receptor internalization, flow cytometry; reference of the scale not given here; response, % (concentration not given with the values); actives 0.43% (n = 340,000); AID 504454;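 active = response above a set limit, near 3 SD of response in nonfluorescent compounds, cut at about 42% in these data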;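 also: stock transfer was 100 nL into about 11 µL; a reference agonist was the positive control; negative values mostly stem from fluorescent compounds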
# Target sequence (P07550 whole entry, looked up): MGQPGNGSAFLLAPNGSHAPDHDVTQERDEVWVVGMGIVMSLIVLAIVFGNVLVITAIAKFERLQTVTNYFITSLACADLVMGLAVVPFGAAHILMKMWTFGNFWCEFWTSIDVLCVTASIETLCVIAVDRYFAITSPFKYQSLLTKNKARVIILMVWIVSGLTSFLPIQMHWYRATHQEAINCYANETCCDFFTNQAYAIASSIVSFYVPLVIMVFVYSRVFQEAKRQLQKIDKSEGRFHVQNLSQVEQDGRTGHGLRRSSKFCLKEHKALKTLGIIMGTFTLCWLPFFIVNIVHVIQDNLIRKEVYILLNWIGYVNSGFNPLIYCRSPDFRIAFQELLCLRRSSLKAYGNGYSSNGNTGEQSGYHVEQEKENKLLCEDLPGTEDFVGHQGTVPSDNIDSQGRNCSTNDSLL
# Bfl-1 A1 inh = inhibitors of the anti-apoptotic protein A1, read as caspase activation. MEF A1-2A-BIM cells, Caspase-Glo 3/7 luminescence, 3 h; percent of clofoctol response, vehicle zero. caspase activation, % (test concentration not listed). actives 0.066% (n = 330,000). AID 2462;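 active = over half of replicate activation scores above 10%, or exactly half above 10 with the replicate mean above 10; inconclusive = replicate mean below 10 yet half the replicates above 10; inactive = over half of replicates below 10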;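 also: wells of about 30 µL received 50 nL stock; many hits fall short of the cut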
# rRNA inh HTS = selective bacterial rRNA inhibition in E. coli | actives 1.6% (n = 350,000) | E. coli WT GFP vs humanized-ribosome RFP mutants, fluorescence, 24 h; hits give low values; DMSO median 0, no signal -100 | GFP signal change (wild-type ribosome), % (no concentration beside the values);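 active = significant combined selectivity score with lowered wild-type GFP, culture density cut under 30%, mutant RFP and density less affected; inactive = any of these conditions unmet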; also: one replicate is shown; some compounds called inactive have numbers as strong as hits
# ALR H2O2 inh = inhibitors of human sulfhydryl oxidase ALR; P55789; purified ALR, DTT oxidation, H2O2 HRP-luminol luminescence; inhibition, % (concentration not given with the values); actives 3.8% (n = 290,000); AID 485317;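 active = mean and each replicate at 75% or more; inconclusive = only one of the two met; inactive = neither met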;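 also: stock transfer was 7.5 nL into about 7.5 µL; 0% = neutral wells and 100% = wells with inactivated enzyme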
# Target sequence (P55789 whole entry, looked up): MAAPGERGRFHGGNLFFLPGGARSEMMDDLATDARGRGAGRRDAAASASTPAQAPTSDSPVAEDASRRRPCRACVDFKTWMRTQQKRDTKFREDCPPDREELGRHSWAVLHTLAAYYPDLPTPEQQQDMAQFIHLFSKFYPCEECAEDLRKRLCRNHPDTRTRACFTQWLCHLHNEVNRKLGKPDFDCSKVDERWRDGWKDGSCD
# LANA-H2A inh = blocks KSHV LANA binding to histone H2A/H2B; Q9QR71; cell-free LANA-H2A/H2B peptide, fluorescence polarization; inhibition, % (concentration not given with the values); actives 0.6% (n = 320,000); in the data active = inhibition mostly above about 10%, no sharp cut-off; inactive = mostly below about 6.7%;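 also: stock transfer was 7.5 nL into about 10 µL; 0% = median of vehicle wells and 100% = median of positive control wells; one replicate is shown; the record names a cut of 25% in any replicate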
# T cruzi inh = T. cruzi replication inhibition; T. cruzi beta-gal in NIH3T3, luminescence, 90 h; inhibition, % (test concentration not listed); actives 1.4% (n = 300,000); AID 1885;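 active = mean inhibition across valid replicates above about 55%, limit read from the data; inconclusive = mean below that limit but half or more replicates reach it; inactive = mean below it, under half of replicates reach it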;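 also: signal also drops with host cell toxicity which is not excluded here; 0% = plate median of DMSO wells and 100% = zero luminescence signal; higher percent means less beta-gal luminescence so fewer parasites; stock transfer was 50 nL into about 50 µL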
# Calb FLC = C. albicans growth modulation with fluconazole; C. albicans CaCi-2 (fluconazole-resistant clinical isolate) + fluconazole, Alamar Blue growth, 48 h; growth inhibition, % (concentration not given with the values); actives 0.57% (n = 300,000);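 active = most replicates above 75%; inconclusive = exactly half above 75%; inactive = most below 75%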;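 also: all wells also contain fluconazole at 8 µg/ml as a sub-toxic cotreatment; 0% = median of DMSO wells and 100% = median of geldanamycin control wells; wells of about 8 µL received 7.5 nL stock; the first replicate is given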
# rRNA inh HTS OD600 = recorded beside rRNA inh HTS, whose call it bears; OD600 change, %; measured here: OD600 growth;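 optical density of the mix in the first replicate; 0 = DMSO median and -100 = no signal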
# rRNA inh HTS RFP = also measured in rRNA inh HTS; calls as there; RFP signal change, %; measured here: RFP humanized mutant strains;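 first replicate; 0 = DMSO median and -100 = no signal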
# * marks the source's active call; other numbers are inactive results; ? = inconclusive; · = not tested or not shown. A portion of the library. The share of hits here may be higher or lower than overall.
SMILES,Beta apoptosis,Beta2AR agonist,Bfl-1 A1 inh,rRNA inh HTS,rRNA inh HTS OD600,rRNA inh HTS RFP,ALR H2O2 inh,LANA-H2A inh,T cruzi inh,Calb FLC
COc1ccccc1CCCNC(=O)C1CCC(=O)N(CCCN2CCCC2=O)C1 (configuration not stated),-2,2,-0.1,2,12,1.2,1,1.0,21,4
CC(=O)NS(=O)(=O)c1ccc(NC(=O)c2ccc3c(c2)NC(=O)CS3)cc1,-3,2,0.9,6,12,-1.3,-4,3.1,·,·
CCCn1cc(S(=O)(=O)c2ccccc2)c(=O)c2cc(OCC)ccc21,0,9,-0.2,-3,-7,-1.0,4,2.8,-7,-2
O=C(NCCCN1CCOCC1)c1cc(-c2ccccc2)nc2ccccc12,-5,2,0.2,13,4,0.5,2,0.1,-10,4
CCc1ccc(OCC(=O)Nc2ncc3c(n2)CC(C)(C)CC3=O)cc1,2,-4,-1.0,·,·,·,-1,-1.2,-8,0
CC(NC(=O)c1ccc(NC(=O)c2ccco2)cc1)c1ccccc1 (configuration not stated),-2,-16,0.4,9,18,-0.1,1,3.1,4,2
O=C(Nc1ccccc1)Nc1ccc(F)cc1F,5,-2,-5.7,-6,-5,-4.6,-2,2.7,-54,-17
O=C(COC(=O)/C=C/c1ccc(F)cc1)Nc1ccc(S(=O)(=O)N2CCOCC2)cc1,2,-1,-0.6,·,·,·,-3,-0.4,·,·
COc1ccc(C)cc1-n1ccn(CC(=O)Nc2ccc(Br)cc2F)c(=O)c1=O,7,4,1.6,10,14,-1.0,-11,-2.8,1,-6
CN(CC(=O)Nc1cccc(F)c1)C(=O)c1ccc(OCc2ccccc2)cc1,1,0,-0.6,14,17,-1.8,-2,2.4,·,·
O=C(NCc1n[nH]c(=S)n1-c1ccc(F)cc1)c1ccc(S(=O)(=O)N2CCCC2)cc1,-2,-2,0.6,·,·,·,31,-0.9,-4,1
COc1ccc([C@H]2CC(=O)C=C(c3cc4ccccc4s3)C2)cc1,-11,-2,0.2,14,3,-4.8,-3,6.0,·,·
COc1ccc(-c2c(C#N)c(N)nc3sc(C(=O)c4ccccc4)c(N)c23)cc1,-1,-6,0.7,·,·,·,-2,5.2,22,0
O=C(O)C(Cc1c[nH]c2ccccc12)NS(=O)(=O)c1ccc(Br)cc1 (configuration not stated),-7,10,0.8,9,8,1.4,-22,4.2,0,3
Cc1ccc(S(=O)(=O)NCCc2nnc(SCc3cccnc3)n2C)cc1,-8,2,0.3,7,2,-1.5,-8,-2.6,5,-10
COc1ccc(-c2nc3cc(C)ccn3c2NCc2ccc3c(c2)OCO3)cc1,-4,-15,-4.6,4,-2,0.1,58,-1.9,30,-37
CCOc1cc(/C=N/n2cnnc2)ccc1OC(=O)c1cccc([N+](=O)[O-])c1,-8,-1,-0.9,·,·,·,4,-7.4,-9,-13
CCN(CC)c1ccc(/C=C(\C#N)c2ccccn2)cc1,28,-11,-7.6,·,·,·,44,-10,16,4
O=c1[nH]c(CSc2nc3ccccc3s2)nc2cc(Cl)ccc12,0,·,-0.1,3,3,4.4,52,-2.2,0,12
CN(C(=O)CSc1nnc(-c2cccc(F)c2)n1N)C1CCS(=O)(=O)C1 (configuration not stated),-15,1,0.1,32,26,2.3,2,0.3,-3,-5
CN(C)c1ccc(C(=O)N2CCCC(CCC(=O)N3CCN(c4ccccn4)CC3)C2)cc1 (configuration not stated),-1,-8,0.3,-9,-19,-0.3,57,3.3,9,-1
O=P(c1ccccc1)(c1ccccc1)c1cc(Br)cc(Br)c1OCCO,-4,3,0.5,-13,-17,7.6,-11,-1.8,10,7
CCOc1ccc(NC(=O)CSc2nc(=O)n(Cc3ccccn3)c3c2CCC3)cc1,·,-6,0.4,0,3,-2.9,?,1.7,8,0
CN(C)CCN(C(=O)c1ccc2ccccc2c1)c1nc2cc3c(cc2s1)OCCO3,-18,-1,-0.6,-7,-4,-1.3,-2,4.1,25,-1
O=C(N/N=C\c1ccccc1OCc1ccccc1)c1ccco1,-1,-6,-0.5,-5,2,-0.1,-8,-4.1,-17,0

# Continued (4 carried over from the part before).
SMILES,Beta apoptosis,Beta2AR agonist,Bfl-1 A1 inh,rRNA inh HTS,rRNA inh HTS OD600,rRNA inh HTS RFP,ALR H2O2 inh,LANA-H2A inh,T cruzi inh,Calb FLC
O=P(c1ccccc1)(c1ccccc1)c1cc(Br)cc(Br)c1OCCO,-4,3,0.5,-13,-17,7.6,-11,-1.8,10,7
CCOc1ccc(NC(=O)CSc2nc(=O)n(Cc3ccccn3)c3c2CCC3)cc1,·,-6,0.4,0,3,-2.9,?,1.7,8,0
CN(C)CCN(C(=O)c1ccc2ccccc2c1)c1nc2cc3c(cc2s1)OCCO3,-18,-1,-0.6,-7,-4,-1.3,-2,4.1,25,-1
O=C(N/N=C\c1ccccc1OCc1ccccc1)c1ccco1,-1,-6,-0.5,-5,2,-0.1,-8,-4.1,-17,0
COC(=O)Cc1[nH]n(-c2nc3ccccc3s2)c(=O)c1C(C)=O,20,5,-5.5,·,·,·,98*,0.2,6,-6
c1ccc(CN2CCN(c3cnc4ccccc4n3)CC2)cc1,·,-5,0.1,-8,-3,1.7,·,1.1,8,11
Cc1ccc(S(=O)(=O)Nc2ccc(Oc3cccnc3)nc2)cc1,-1,-1,0.2,-11,-10,4.2,-50,-1.8,15,3
CCC(=O)c1ccc(OCC(O)CN(CCc2ccccc2)Cc2ccccc2)cc1 (configuration not stated),9,-16,-0.2,·,·,·,-5,-2.8,?,-5
CCC(CC)NC(=O)/C=C/c1ccccc1Cl,2,2,-3.8,·,·,·,-3,-1.6,9,0
C=CCN1CN(Cc2ccco2)CNC1=S,-5,-7,-0.7,·,·,·,-2,-6.5,10,7
CCOC(=O)c1c(-c2ccc(C)cc2)csc1NC(=O)C1CC=CCC1C(=O)O (configuration not stated),·,12,0.0,·,·,·,13,1.0,-1,-1
O=C(CN1C(=O)C2C3CCC(C3)C2C1=O)OCC(=O)c1ccc(Br)cc1 (configuration not stated),-8,-4,-0.2,9,12,2.1,-4,-8.8,-32,1
CCN1C(=O)C(O)(CC(=O)c2ccc3c(c2)OCCO3)c2ccccc21 (configuration not stated),·,-11,-2.2,-2,3,3.0,34,2.5,-24,-4
CC1CCCC(NC(=O)COC(=O)COc2ccc(C#N)cc2)C1C (configuration not stated),6,5,0.5,8,13,5.2,-2,-1.6,·,·
N/C(Cc1ccc([N+](=O)[O-])cc1)=N\OC(=O)c1ccc(Br)o1,-7,22,0.1,11,-7,-4.4,6,1.4,4,-4
CCOC(=O)c1oc2ccc3c(c2c1C)C(=O)CC1(CCN(C(=O)OCC)CC1)O3,-2,2,0.4,·,·,·,0,1.3,51,6
O=C(/C=C/c1cn(-c2ccccc2)nc1-c1cccnc1)N1CCCCC1,9,-8,0.0,-44,-66,-3.2,-2,0.2,20,22
CN(C)Cc1c(C(=O)N/N=C/c2cccc(OCc3ccc(F)cc3)c2)nnn1-c1nonc1N,-7,-4,0.4,3,-2,-3.6,-1,7.2,-3,4
Cc1nnc(SCSc2nnc(C)s2)s1,0,-10,0.6,·,·,·,11,1.2,-20,-1
O=C(c1ccc(C(F)(F)F)cc1)N1CCC(=O)N(C(COCc2ccc(Cl)cc2)Cc2ccccc2)CC1 (configuration not stated),3,-2,0.3,-2,-2,-4.3,·,2.7,23,6
c1ccc(NCc2cccc3ccccc23)nc1,-7,-15,0.0,-21,-42,2.1,-1,5.1,2,-38
c1ccc(-n2ncc3c2ncn2nnnc32)cc1,·,·,0.0,·,·,·,1,-13,-2,4
Cc1cccc(N(C(=O)c2snc(C(N)=O)c2N)C(C(=O)NCC2CCCO2)c2ccc(N(C)C)cc2)c1 (configuration not stated),5,-1,0.8,7,5,-0.9,·,1.6,11,-1
COc1c2ccc(OCC/C(C)=C/C(=O)C=C(C)C)cc2nc2occc12,-4,-5,1.9,7,-22,7.2,-7,-1.9,·,·
CC(=O)NNC(=O)C(O)(c1ccccc1)c1ccccc1,-6,0,0.3,·,·,·,-10,0.0,-20,5
CCCC(=O)NC(Nc1cccc(C(F)(F)F)c1)C(Cl)(Cl)Cl (configuration not stated),1,2,-0.3,·,·,·,-4,0.5,11,-5
Cc1cc(N2CCN(C)CC2)nc2ccc(NC(=S)NCCC(C)C)cc12,0,-10,0.4,-12,-11,1.4,2,-0.7,57*,-14
Clc1ccc(CNCC2CCCO2)c(Cl)c1 (configuration not stated),-6,3,0.0,3,-3,0.4,7,-1.8,-1,-5
CCCC(=O)c1ccc(N2CCN(C(=O)c3ccccc3Br)CC2)c(F)c1,5,3,-0.1,·,·,·,-4,-3.8,-26,-4
N#CC1=C(N)OC2=C(C(=O)CCC2)C1c1cccs1 (configuration not stated),-2,-3,0.7,7,8,1.5,15,-2.5,-13,1
C=CCN(c1ccccc1)S(=O)(=O)c1cccc(C(=O)NCC(c2cccs2)N2CCOCC2)c1 (configuration not stated),7,-2,0.4,-11,-20,2.4,2,-9.5,12,-6

# Retrieved by structure from the entries so far, 4 records:
SMILES,Beta apoptosis,Beta2AR agonist,Bfl-1 A1 inh,rRNA inh HTS,rRNA inh HTS OD600,rRNA inh HTS RFP,ALR H2O2 inh,LANA-H2A inh,T cruzi inh,Calb FLC
C=CCN1CN(Cc2ccco2)CNC1=S,-5,-7,-0.7,·,·,·,-2,-6.5,10,7
COC(=O)Cc1[nH]n(-c2nc3ccccc3s2)c(=O)c1C(C)=O,20,5,-5.5,·,·,·,98*,0.2,6,-6
CC(=O)NNC(=O)C(O)(c1ccccc1)c1ccccc1,-6,0,0.3,·,·,·,-10,0.0,-20,5
O=C(/C=C/c1cn(-c2ccccc2)nc1-c1cccnc1)N1CCCCC1,9,-8,0.0,-44,-66,-3.2,-2,0.2,20,22

# Some of the entries so far, with tabs:
SMILES	Beta apoptosis	Beta2AR agonist	Bfl-1 A1 inh	rRNA inh HTS	rRNA inh HTS OD600	rRNA inh HTS RFP	ALR H2O2 inh	LANA-H2A inh	T cruzi inh	Calb FLC
CCC(=O)c1ccc(OCC(O)CN(CCc2ccccc2)Cc2ccccc2)cc1 (configuration not stated)	9	-16	-0.2	·	·	·	-5	-2.8	?	-5
CCC(CC)NC(=O)/C=C/c1ccccc1Cl	2	2	-3.8	·	·	·	-3	-1.6	9	0

# Source: PubChem BioAssay
